Screening data as filed in PubChem BioAssay.
SARS PLP yeast = qHTS of Yeast-based Assay for SARS-CoV PLP; S. cerevisiae expressing SARS-CoV PLpro, growth rescue; control for the full effect not named in the record; Potency, µM (doses to about 32.9 µM), inactives show at the top dose activity, positive = growth rescue; 0.19% of 330,000 active; AID 485353, 2010; also: 0% is about no effect; nearly all actives have a fitted effect of over 55% in size; growth read by luminescence after 48 h
Cruzain inh Det = qHTS Assay for Promiscuous and Specific Inhibitors of Cruzain (with detergent). purified cruzain, Z-FR-AMC fluorescence, 0.01% Triton. Potency, µM, inactives show max response, negative = inhibition, most hits filed as inhibitors. 0.43% of 200,000 active. AID 1478, 2009; active = well fitted curve in the direction sought with a large enough effect; inconclusive = small, poorly fitted or top-dose-only effect, or another doubt; inactive = no such curve, though single readings can be large; an effect the other way counts as inactive or inconclusive;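 also: plate controls were neutral wells for no effect and buffer without enzyme for full effect; nearly all actives have a fitted effect of over 40% in size; top concentration of the series not given in the record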
Target sequence (P25779 123-467 limits assumed): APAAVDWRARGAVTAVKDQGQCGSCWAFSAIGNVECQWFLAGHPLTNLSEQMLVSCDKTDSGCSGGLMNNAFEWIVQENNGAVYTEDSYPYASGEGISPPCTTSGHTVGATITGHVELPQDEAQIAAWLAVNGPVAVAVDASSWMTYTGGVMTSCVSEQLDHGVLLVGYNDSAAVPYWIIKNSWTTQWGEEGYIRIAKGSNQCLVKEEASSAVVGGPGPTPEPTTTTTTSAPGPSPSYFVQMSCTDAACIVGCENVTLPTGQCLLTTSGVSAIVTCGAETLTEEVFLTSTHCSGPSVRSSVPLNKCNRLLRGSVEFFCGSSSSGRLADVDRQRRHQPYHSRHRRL
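Purified cruzain (1.5 nM final) was preincubated with compounds for 15 min at room temperature in 100 mM sodium acetate pH 5.5, 5 mM DTT, 0.01% Triton X-100. Reaction started with 2 uM Z-FR-AMC; AMC fluorescence change over 60 s gave activity.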
RE007 growth inh = qHTS Assay for Inhibitors of the HIV-1 protein Vpr. S. pombe RE007 Vpr strain, BacTiter-Glo ATP luminescence, 24 h; control for the full effect not named in the record. 0.21% of 360,000 active. Potency, µM (top dose mostly 92.2 µM), inactives show top-dose activity change, negative = less growth; active = well fitted falling curve with a large enough effect; inconclusive = small, poorly fitted or top-dose-only effect; inactive = no such curve, though single readings can be large or run the other way;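 also: % is scaled to controls: 0 for no effect and ±100 for the full control effect; nearly all actives have a fitted effect of over 50% in size; the assay follows cell death caused by Vpr and the record does not say whether a fall means rescue or toxicity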
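Fission yeast strain RE007, carrying one chromosomally integrated HIV-1 vpr copy, was seeded at OD 0.01 in PMG+AL medium with 23 nL pinned compound. After 24 h at 30 °C and 99% humidity, viability was read by BacTiter-Glo luminescence.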
LASV entry inh = qHTS for Inhibitors of binding or entry into cells for Lassa Virus; Lassa virus pseudotype entry inhibition, cell reporter; control for the full effect not named in the record; 1.2% of 300,000 active; Potency, µM (highest dose often 37.9 µM), for inactives: top-dose activity change, negative = inhibition, most hits filed as inhibitors; AID 540256, 2011; active means well fitted inhibition curve with a large enough effect; inconclusive means small, poorly fitted or top-dose-only effect, or effect the other way; inactive means flat fitted curve, though single readings scatter; tested in HEK293 cells; also: % is scaled to controls: 0 for no effect and ±100 for the full control effect; nearly all actives have a fitted effect of over 50% in size; luciferase read-out
Marburg entry inh = qHTS for inhibitors of binding or entry into cells for Marburg Virus; Marburg virus pseudotyped entry inhibition, cell reporter; control for the full effect not named in the record; about a third of the inactives were read at about 46 µM; Potency, µM (top dose mostly 37.8 µM), for the others: top-dose activity change, negative = inhibition, hits mostly inhibitors; 1.8% of 300,000 active; AID 540276, 2011; active = well fitted inhibition curve with a large enough effect; inconclusive = small, poorly fitted or top-dose-only effect, or effect the other way; inactive = flat fitted curve, though single readings scatter; tested in HEK293 cells; about a fifth of its hits are not listed in these tables; also: % is scaled to controls: 0 for no effect and ±100 for the full control effect; luciferase read-out
2A StopGo = High Throughput Screening for Foot and Mouth Disease Virus Antivirals | human cells with a luciferase reporter of 2A StopGo recoding; control for the full effect not named in the record | 1.2% of 410,000 active | Potency, µM (titrated, usually from 57.9 µM), without a hit: at the highest dose signal change, negative = less light; active = well fitted falling curve with a large enough effect; inconclusive = small, poorly fitted or top-dose-only effect; inactive = no such curve, though single readings can be large or run the other way; tested in HEK293T cells; also: % is scaled to controls: 0 for no effect and ±100 for the full control effect; nearly all actives have a fitted effect of over 45% in size; luciferase light after 4 h
NS1 inh = qHTS Assay for Inhibitors of Influenza NS1 Protein Function. Potency, µM (series often up to 46.1 µM), for the others: at the highest dose activity, positive = more growth. S. cerevisiae slowed by influenza A NS1, growth recovery by OD600. 0.4% of 270,000 active; also: actives are rising curves; nearly all actives have a fitted effect of over 50% in size
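Recovery from NS1-induced slow growth read by OD600 in budding yeast switched to galactose assay medium (pH 6.0, -URA) at 1:100 dilution. Compound 23 nl per well; the matching strain lacking NS1 serves as control.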
Cruzain noTriton = qHTS Assay for Promiscuous and Specific Inhibitors of Cruzain (without detergent) | Cruzipain (Trypanosoma cruzi), P25779 | purified cruzain, Z-FR-AMC fluorescence, no detergent | Potency, µM, inactives show max response, negative = inhibition, usual class: inhibitors | 2.3% of 200,000 active | AID 1476, 2009; active = well fitted curve in the direction sought with a large enough effect; inconclusive = small, poorly fitted or top-dose-only effect, or another doubt; inactive = no such curve, though single readings can be large; an effect the other way counts as inactive or inconclusive;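 also: plate controls were enzyme without inhibitor for no effect and buffer without enzyme for full effect; nearly all actives have a fitted effect of over 40% in size; top concentration of the series not given in the record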
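Detergent-free condition (0.00005% Triton X-100) in acetate buffer pH 5.5 with DTT. 1.5 nM enzyme and compound were pre-mixed 15 min, then 2 uM Z-FR-AMC substrate added; reaction progress from fluorescence change between first and third reads (60 s).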
* = called active by the depositor; ? = inconclusive; . = no result given; & = joins results of further samples; [ ] = dose if it differs, or a comment. Unless noted, calls follow the shape of the dose curve; as a rule, active means well fitted rising curve with a large enough effect; inconclusive means small, poorly fitted or top-dose-only effect; inactive means no such curve, though single readings can be large or run the other way. Potency is read from the fitted curve at half-maximal effect.

SMILES | SARS PLP yeast | Cruzain inh Det | RE007 growth inh | LASV entry inh | Marburg entry inh | 2A StopGo | NS1 inh | Cruzain noTriton
COc1cccc(OCc2cc(C(=O)N(C)Cc3nc(C)cs3)no2)c1 | -3% | . | 10% | ? | -16% | 72%[activator] | -2% | .
O=c1[nH]c(=S)[nH]c2sccc12 | 3% | . | 20% | ? | 1% | 75%[activator] | . | .
Cc1cccc(N2N=C(C(=O)Nc3ccc(Cl)c(S(=O)(=O)N4CCOCC4)c3)CCC2=O)c1 | 5% | . | 5% | ? | ? | -22% | . | .
CCN(C(=O)Cn1c(=O)n(Cc2ccccc2)c(=O)c2c1c1cc(OC)ccc1n2C)c1ccccc1 | . | 1.0% | . | 7%[46.1 µM] | . | 2% | . | -1%
CCOc1ccc(S(=O)(=O)NCCC(=O)N2CCN(c3ccc(OC)cc3)CC2)cc1 | -1% | . | -21% | ? | 3%[46.1 µM] | ? | 1% | .
Cc1ccc(S(=O)(=O)Nc2ccccc2F)cc1C(=O)NNC(=O)c1ccccc1O | ? | . | 16% | ? | -19%[46.1 µM] | 2% | . | .
O=c1c2c(-c3ccccc3)ccnc2[nH]n1-c1ccccc1 | 2% | 0.7% | -5% | ? | -4% | 45%&13%[activator] | -4% | -13%
COc1cccc(-n2c(C)nc3c(cnn3-c3ccc(C)cc3)c2=O)c1 | -5% | -4.4% | 12% | -13% | ? | -25% | -46% | -9%
CCn1c(=O)cc(OCC(=O)NCc2cccnc2)c2ccccc21 | -2% | 0.2% | -19% | 0% | 15% | -2% | 3% | -6%
CN(Cc1c(C(=O)N(C)Cc2ccccc2)nc2ccccn12)CC1Cc2ccccc2O1 (stereo unspecified) | -3% | . | 2% | ? | -31%[46.1 µM] | -15% | -2% | .
C1=Cc2ccccc2Nc2ccccc21 | -1% | . | -28% | . | 0% | -4% | -5% | .
COCCn1c(Cc2ccccc2)nnc1SCc1ccc([N+](=O)[O-])cc1 | ? | -2.2% | 5% | 1% | 14% | -2% | -3% | 16%
COc1ccc(-c2nnc(SCC(=O)Nc3ncc(C)s3)n2-c2ccccc2)cc1OC | -10% | -2.2% | -21% | ? | ? | ? | -32% | ?
CN(Cc1cccc(Cl)c1Cl)C(=O)c1ccc(NC(=O)CC#N)cc1 | 15% | -7.9% | 4% | -14% | -17% | 2% | 20% | 18%
Fc1ccc(Oc2nc(-c3ccccc3)nnc2C(F)(F)F)cc1 | ? | -5.6% | -21% | -4% | 6%[46.1 µM] | -19% | 2% | 1%
CCC(=Nc1ccccc1O)C1=C(O)CC(c2ccccc2)CC1=O (stereo unspecified) | -4% | . | ? | . | . | -14% | -84% | .
COc1ccc(C2C(C#N)=C(N)Oc3cc(O)ccc32)cc1C (stereo unspecified) | 5% | . | 6% | . | . | 1% | 2% | .
CC(C)(C)NC(=O)NC(=O)COC(=O)CCC1CCCCC1 | -5% | -6.4% | -28% | 0% | -5% | -18% | 11% | -5%
CCCN1CCN(C(c2cc3cc(OCC)ccc3[nH]c2=O)c2nnnn2C2CCCCC2)CC1 (stereo unspecified) | 0% | -5.4% | 4% | -4% | ? | 9% | -8% | -4%
CCOc1ccccc1NC(=O)N1CCC(c2nc3ccc(C)cc3[nH]2)CC1 | -2% | 2.2% | 8% | -17%[14.3 µM] | ? | -1% | -5% | 7%
Cc1ccc(-c2cc(C(=O)NCC(c3ccccc3)N(C)C)c3ccccc3n2)o1 (stereo unspecified) | -1% | . | -14% | 8%[46.1 µM] | ? | -9% | . | .
CSc1ccc(S(=O)(=O)Nc2ccc3c(c2)NC(=O)CC3)cc1 | -3% | . | 0% | -13% | -26%[46.1 µM] | 0% | . | .
COc1ccccc1NS(=O)(=O)c1cc(N)ccc1N1CCOCC1 | -2% | . | -14% | 23% | 1% | 19% | . | .
O=Cc1ccccc1OCc1ccc2c(c1)OCO2 | -14% | . | ? | . | . | 8% | -15% | .
COC(=O)c1cnc(Oc2ccc(NC(=O)NC(=O)c3ccccc3Cl)cc2)cc1C(F)(F)F | 0% | . | 2% | ? | ? | -4% | -1% | .

A few values from the entries so far:
Result for CC(C)(C)NC(=O)NC(=O)COC(=O)CCC1CCCCC1 in Cruzain noTriton: -5%
Result for CCCN1CCN(C(c2cc3cc(OCC)ccc3[nH]c2=O)c2nnnn2C2CCCCC2)CC1 (stereo unspecified) in Cruzain noTriton: -4%

Next section:
SMILES | SARS PLP yeast | Cruzain inh Det | RE007 growth inh | LASV entry inh | Marburg entry inh | 2A StopGo | NS1 inh | Cruzain noTriton
COc1c2c(cc(O)c1C(C)=O)OC(C)(C)C=C2 | . | . | 10% | 0%[46.1 µM] | 11%[46.1 µM] | -5% | . | .
CC(NC(=O)CSc1nnc(COc2ccccc2)o1)c1ccccc1 (stereo unspecified) | -2% | 0.5% | -5% | -15% | -23% | 11% | -9% | 12%
Cc1ccc(S(=O)(=O)Nc2cc(C(=O)Nc3cc(C)cc(C)c3)ccc2Cl)cc1 | . | 3.1% | -5% | 1% | 13% | -18% | -5% | -16%
CSc1nsc(SCC(=O)Nc2cccc(C(=O)O)c2)n1 | 2% | . | -27% | 0%[46.1 µM] | -1%[46.1 µM] | 4% | 5% | .
COc1ccc(/C=C/c2ccncc2)cc1 | -5% | -3.2% | -20% | 20% | 18% | 30% | -30% | -2%
O=C(NCc1ccccc1Cl)c1ccc2c(c1)ncn2-c1cccc(F)c1 | . | -8.9% | . | 12%[46.1 µM] | . | 30%[activator] | . | -10%
O=C(N/N=C/c1ccc([N+](=O)[O-])cc1)c1[nH]ncc1Br | 1% | . | 7% | 6% | 3%[14.2 µM] | 42%[activator] | . | .
COC(=O)c1cc(NC(=O)c2cccc(C(F)(F)F)c2)c(=O)oc1C/C=N/OCc1cccc(Cl)c1Cl | -5% | -28% | -6% | 1% | ? | -24% | 28% | 0.79µM*
O=C(c1ccccc1F)c1cn(Cc2ccccc2)c2ccccc12 | -4% | 0.8% | -22% | -26% | -6% | -28% | 13% | -2%
COC(=O)c1cccc(NC(=O)CSc2nc(=O)cc(N)n2-c2ccccc2)c1 | 8% | ? | -8% | -12% | -8% | 9% | -5% | ?
CC(=O)Nc1cccc(NCC(=O)Nc2cc(S(=O)(=O)N3CCCCC3)ccc2Cl)c1 | -18% | . | -9% | -20% | ? | -18% | . | .
NNC(=O)C(Cc1cnc[nH]1)NC(=O)OCc1ccccc1 (stereo unspecified) | 2% | . | -1% | . | . | -8% | 3% | .
Nc1ccc(C(=O)Nc2ccc3cc(S(=O)(=O)O)ccc3c2)cc1 | . | . | -13% | -5%[46.1 µM] | ? | 2% | . | .
CCCCNC(=O)C1CCC(CNS(=O)(=O)c2ccc(NC(C)=O)cc2)CC1 (stereo unspecified) | -1% | 1.6%&0.0% | -7% | -5%[46.1 µM] | 12%&12% | -13%&2% | 0% | -7%&-4%
O=C(Cn1ncc2c1-c1ccccc1OC2)N1CCN(Cc2ccc3c(c2)OCO3)CC1 | -1% | -0.3% | 7% | . | -7% | -6% | -22% | -8%
O=C1CCSc2ccc(Cl)cc2N1Cc1ccc(Cl)cc1 | -7% | -4.3% | 24% | -20% | ? | ? | 3% | 6%
CN1C(=O)c2cccc3c(S(N)(=O)=O)ccc1c23 | 7% | . | -1% | . | . | 0% | ? | .
Cc1cc(S(=O)(=O)N2CCCOC2CNC(=O)C(=O)NCc2cccs2)ccc1F (stereo unspecified) | -8% | . | -10% | -41% | -17% | -3% | 6% | .
COc1cnn(-c2ccccc2)c(=O)c1OC | 1% | . | 16% | ? | 3% | 3% | 1% | .
Cc1nc(CS(=O)(=O)c2ccc(Cl)cc2)cc(Sc2ccccc2Cl)n1 | -11% | -1.3% | 11% | ? | ? | ? | -22% | -4%
Cn1cc([N+](=O)[O-])c(C(=O)N/N=C\c2c[nH]c3ccccc23)n1 | 0% | . | 9% | -4%[46.1 µM] | -2%[46.1 µM] | 14% | 2% | .
COc1ccc(CCN2CC(C(=O)OCC(=O)NC(C)c3cccc(Cl)c3)CC2=O)cc1OC (stereo unspecified) | -4% | . | 1% | 23% | 5% | -13% | . | .
COc1ccccc1NC(=O)CCc1nnc2ccc(NCc3ccco3)nn12 | 1% | . | -7% | . | . | 12% | 7% | .
CCn1ncc([N+](=O)[O-])c1C(=O)Nc1ccc(C(=O)N2CCCCC2)cc1 | -4% | 0.0% | 6% | ? | -9% | -13% | 4% | 3%
COc1ccc(-c2oc3ncn(Cc4ccco4)c(=N)c3c2-c2ccc(OC)cc2)cc1 | -2% | -5.0% | 1% | ? | ? | -7% | 11% | -6%
CCCCCCCC(=O)NNC(=O)c1c(O)c2ccccc2n(CC)c1=O | 0% | . | -18% | -9%[46.1 µM] | ? | 25% | 0% | .
COc1ccc(C(=O)Nc2ccc(N3CCC(C)CC3)cc2)cc1Br | 1% | . | 3% | -17%[46.1 µM] | -5%[46.1 µM] | -16% | . | .
CNCC(C)c1ccccc1 (stereo unspecified) | 1% | . | -11% | 22%[46.1 µM] | 10%[46.1 µM] | -3% | -1% | .

Copied from the entries so far, 4 compounds:
SMILES | SARS PLP yeast | Cruzain inh Det | RE007 growth inh | LASV entry inh | Marburg entry inh | 2A StopGo | NS1 inh | Cruzain noTriton
COc1ccc(-c2oc3ncn(Cc4ccco4)c(=N)c3c2-c2ccc(OC)cc2)cc1 | -2% | -5.0% | 1% | ? | ? | -7% | 11% | -6%
CCCCCCCC(=O)NNC(=O)c1c(O)c2ccccc2n(CC)c1=O | 0% | . | -18% | -9%[46.1 µM] | ? | 25% | 0% | .
COc1ccc(C(=O)Nc2ccc(N3CCC(C)CC3)cc2)cc1Br | 1% | . | 3% | -17%[46.1 µM] | -5%[46.1 µM] | -16% | . | .
CNCC(C)c1ccccc1 (stereo unspecified) | 1% | . | -11% | 22%[46.1 µM] | 10%[46.1 µM] | -3% | -1% | .
